StopGo RLuc: Primary qHTS Assay for Foot and Mouth Disease Virus Antivirals against NCGC Sytravon and CBC Compound Libraries: Renilla Luciferase Signal; Potency, µM (titrated, usually from 57.5 µM), without a hit: top-dose signal change, negative = less light; HEK cells with a luciferase reporter of 2A StopGo recoding; 120,000 tested, 0.32% active; active means well fitted falling curve with a large enough effect; inconclusive means small, poorly fitted or top-dose-only effect; inactive means no such curve, though single readings can be large or run the other way; also: nearly all actives have a fitted effect of over 55% in size; overnight with compound
StopGo FLuc: Primary qHTS Assay for Foot and Mouth Disease Virus Antivirals against NCGC Sytravon and CBC Compound Libraries: Firefly Luciferase Signal; HEK cells with a luciferase reporter of 2A StopGo recoding; Potency, µM (titrated, usually from 57.5 µM), for the others: at the top dose signal change, negative = less light; 120,000 tested, 0.23% active; active = well fitted falling curve with a large enough effect; inconclusive = small, poorly fitted or top-dose-only effect; inactive = no such curve, though single readings can be large or run the other way; also: nearly all actives have a fitted effect of over 60% in size; overnight with compound
* marks the source's active call; other numbers are inactive results; u = inconclusive; & = joins results of further samples; [ ] = dose if it differs, or a comment. % is scaled to controls: 0 for no effect and ±100 for the full control effect; potency is read from the fitted curve at half-maximal effect.

Compound,StopGo RLuc,StopGo FLuc
COc1ccccc1Cn1c(CNS(=O)(=O)c2cccc([N+](=O)[O-])c2)nc2cccnc21,141%[activator],-4%
Cc1ccc(C)c(NC(=O)c2cnc(N3CCCCC3)c3ccccc23)c1,-2%,-3%
Cc1nc(-c2cc3ccc(OCC(=O)NC(CO)C(C)C)cc3oc2=O)cs1 (stereo not given),u,-33%
O=C(OCC(=O)N1CCOCC1)c1ccc2ccccc2n1,-2%,16%
Cc1cc(C(F)(F)F)c(C#N)c(SCCc2ccccc2)n1,-3%,10%
CC(C)c1ccc(O)cc1,u,u
O=C(c1cc(-c2cccs2)[nH]n1)N1CCN(c2ccccn2)CC1,11%,0%
CCCC(CCC)C(=O)Nc1nnc2n1CCS2,1%,14%
C=CCNCc1ccc(-c2ccc(C(C)O)cc2)o1 (stereo not given),9%,53%[activator]
CCc1cccc(C)c1NC(=O)CSc1nc2ccccc2nc1N1CCOCC1,20%,16%
CCN1CCN(c2ccc(NC(=O)c3ccc(S(=O)(=O)NCc4ccco4)cc3)cc2)CC1,74%[activator],-15%
CCNS(=O)(=O)O,1%,8%
CC(C)(C)c1ccccc1OCC(O)Cn1nc(C(N)=O)c2ccccc2c1=O (stereo not given),57%[activator],-18%
O=C(NCc1coc(-c2cccs2)n1)c1cccc(Cl)c1Cl,56%[activator],19%
CC(=O)c1cccc(NC(=O)Cn2ccn3nc(-c4ccccc4)cc3c2=O)c1,-12%,-13%
CCc1ccc(Nc2nnc(-n3nc(C)cc3C)c3ccccc23)cc1,-4%,-2%
O=C(/C=C/N1CCN(C/C=C/c2ccccc2)CC1)C(F)(F)F,-4%,18%
CCC(C)NC(=O)Cn1c(=O)c2cccn2c2ccc(F)cc21 (stereo not given),-15%,-19%
CN(Cc1ccc(F)cc1)S(=O)(=O)c1nnc(NC(=O)c2ccccc2Br)s1,92%[activator],-1%
Cc1ccc(-c2nc3c(c(SCC(=O)N4CCCCC4)n2)Cc2cc(C)ccc2O3)cc1,17%,-9%

Carrying on:
Compound,StopGo RLuc,StopGo FLuc
Cc1cc(C)n2ncc(-c3noc(C(=O)NCC(O)c4ccccc4)n3)c2n1 (stereo not given),4%,0%
O=C(CSc1ccc(Cl)cc1)Nc1cc(Cl)ccc1N1CCOCC1,-16%,-10%
CCCn1c(-n2nc(C)cc2C)nc2c1c(=O)n(Cc1cccc(Cl)c1)c(=O)n2C,5%,7%
Cc1nccc(-c2cccc(C(=O)O)c2)n1,-1%,24%
CCNC(=O)N1CCN(CCCC(c2ccc(F)cc2)c2ccc(F)cc2)CC1,u,14%[11.5 µM]
COc1ccc(OCC(=O)Nc2ccc3oc(-c4ccc5ccccc5c4)nc3c2)cc1,-6%,145%[activator]
COc1cc(/C=C/C(=O)c2ccc(O)cc2)cc(Br)c1O,u,6%
CCOc1cc(/C=N/O)ccc1OCc1ccccc1Cl,24%,61%[activator]
CNC(=O)CCCN1C(=O)c2cccnc2Sc2ccccc21,-4%,-11%
COc1ccc(C2Nc3ccccc3C(=O)N2c2ccc(C)cc2)cc1CN1CCOCC1 (stereo not given),36%[activator],186%[activator]
Cc1occc1-c1nnc(SC(C)C(=O)N2CCc3ccccc32)o1 (stereo not given),0%,8%
C=Cc1ccc(Cn2c(C(=O)O)c(CNC3CCCCC3)c3ccc(OC)cc32)cc1,115%[activator],14%
Cc1cccc(-c2noc(CCCC(=O)NCc3ccco3)n2)c1,-17%,-6%
CCOc1ccc(C(C)=O)cc1COC(=O)COc1ccc(Cl)c(C)c1,9%,5%
COc1cccc(C(=O)COC(=O)C2C3CC4C(OC(=O)C42)C3Br)c1 (stereo not given),50%[activator],10%
O=C(Cn1nc(C(F)(F)F)c2c1CCC2)Nc1ccc(Cl)cc1,-10%,-27%
CCCn1nc(C(=O)OCC(=O)N2CCCc3ccccc32)c2ccccc2c1=O,35%[activator],23%
COc1ccc(N2CCN(C(=O)C3CCN(S(=O)(=O)c4cn(C)cn4)CC3)CC2)cc1,-8%,-14%
Cc1c(O)ccc2c(CN(C)CCOc3ccc(F)cc3)cc(=O)oc12,-26%,-31%
CC(C)(C)C1CCc2onc(C(=O)N3CCCCCC3)c2C1 (stereo not given),18%,34%[activator]

Among those listed so far, four contain a furan ring, fused or not:
Compound,StopGo RLuc,StopGo FLuc
C=CCNCc1ccc(-c2ccc(C(C)O)cc2)o1 (stereo not given),9%,53%[activator]
CCN1CCN(c2ccc(NC(=O)c3ccc(S(=O)(=O)NCc4ccco4)cc3)cc2)CC1,74%[activator],-15%
Cc1occc1-c1nnc(SC(C)C(=O)N2CCc3ccccc32)o1 (stereo not given),0%,8%
Cc1cccc(-c2noc(CCCC(=O)NCc3ccco3)n2)c1,-17%,-6%

Returning to the listing, starting 2 compounds before the break.
Compound,StopGo RLuc,StopGo FLuc
Cc1c(O)ccc2c(CN(C)CCOc3ccc(F)cc3)cc(=O)oc12,-26%,-31%
CC(C)(C)C1CCc2onc(C(=O)N3CCCCCC3)c2C1 (stereo not given),18%,34%[activator]
O=C(CSc1n[nH]c(-c2ccc(Br)cc2)n1)c1cc(F)ccc1F,11%,0%
O=C(CSc1nccn1Cc1ccc2c(c1)OCO2)Nc1nc2ccccc2s1,9%,63%[activator]
Cc1cc(C)cc(NC(=O)c2ncoc2-c2cccs2)c1,-2%,97%[activator]
CNC(=O)c1ccc(CNC(=O)NCC2(c3ccccc3)CC2)cc1,12%,15%
Cc1ccc(S(=O)(=O)N2CCCC2c2ccccc2)cc1 (stereo not given),8%,-2%
O=C(O)C(c1c[nH]c2ccccc12)N1CCN(c2cccc(Cl)c2)CC1 (stereo not given),-9%,-6%
CCN(Cc1ccc(S(=O)(=O)N(C)C)o1)c1ccccc1,25%,0%
Cc1ccc(-n2cnc3cc(C(=O)NCc4ccccc4Cl)ccc32)c(C)c1,0%,54%[activator]
O=C(C1CCCN(S(=O)(=O)c2cccc3nonc23)C1)N1CCN(c2cccc(C(F)(F)F)c2)CC1 (stereo not given),-14%,-20%
Cc1cccc(N2CC(c3nc4ccccc4n3CCC3CCCCC3)CC2=O)c1 (stereo not given),-7%,-8%
O=C(/C=C/c1ccc(SC(F)(F)F)cc1)c1ccc(O)c(CCCl)c1,-7%[1.06 µM],17%
Cc1ccc2c(CN(C)CCOc3ccccc3Cl)cc(=O)oc2c1,4%,13%
Cc1c(Cl)cccc1NC(=O)CNS(=O)(=O)c1cccs1,8%,u
Cc1cc(OCC(=O)NCc2ccncc2)c2c(C)c(C)c(=O)oc2c1,18%,23%
CC(Sc1nnc2c(Cl)cc(C(F)(F)F)cn12)c1ccccc1 (stereo not given),20%,0%
COc1ccc(Cn2c(NCC(C)C)nc3c2c(=O)n(C)c(=O)n3C)cc1,1%&1%,0%&-2%
COc1ccc(-c2coc3cc(OCC(=O)Nc4ccc5c(c4)OCO5)ccc3c2=O)cc1,-5%,72%[activator]
CCn1c(C)c(CCC(=O)NCCN2CCN(C)CC2)c(=O)n2nc(-c3ccccc3OC)cc12,9%,21%
Cc1ccc(SCCC(=O)OCC(=O)c2cc(Cl)ccc2Cl)cc1,1%,7%
Nc1nccnc1C(=O)NCCNc1ncccc1C(F)(F)F,29%,71%[activator]

The list continues.
Compound,StopGo RLuc,StopGo FLuc
CCONC(=O)COc1cccc(C(C)C)c1,-5%,0%
C=CCCC(=O)N1CCN(C(=O)c2ccc(C(F)(F)F)cc2)CC1,-5%,-1%
COC(=O)c1c(C)[nH]c(C(=O)N2CCCC2c2ccccc2)c1C (stereo not given),108%[activator],6%
CCOc1ccc(-n2nc(C(=O)Nc3ccc4c(c3)OCCO4)c3ccccc3c2=O)cc1,14%,16%
CC(=O)N1CCN(Cc2coc(-c3ccc(Cl)cc3)n2)CC1,u,12%
CCOc1ccc(N2C(=O)N(CC(=O)NC(C)CC)c3ccccc3S2(=O)=O)cc1 (stereo not given),6%,2%
Cc1ccc(-n2c(=O)cc(N3CCN(c4ccccc4Cl)CC3)[nH]c2=O)cc1,-12%,-21%
Oc1cccc(-c2c3nc(c(-c4cccc(O)c4)c4ccc([nH]4)c(-c4cccc(O)c4)c4nc(c(-c5cccc(O)c5)c5ccc2[nH]5)CC4)C=C3)c1,2%,30%
O=C(NCC(c1cccs1)S(=O)(=O)c1cccs1)c1ccccc1F (stereo not given),34%[activator],3%
Cc1ccccc1CNC(=O)CCNC(=O)C1CCCC1,-9%,9%
NC(=O)c1ccc(NC(=O)[C@H](Cc2ccccc2)n2cnnn2)cc1,-3%,-1%
CC(C)C(C#CC1CC1)NCc1ccc2c(c1)OCO2 (stereo not given),-10%,-5%
Nc1nc(=S)c2[nH]cnc2[nH]1,-13%,-14%[11.5 µM]
Cn1nc(-c2ccc(C(=O)N3CCCC3)cc2)c2ccccc2c1=O,13%,8%
COCCCNC(=O)C1CCCN(c2ncnc3onc(C)c23)C1 (stereo not given),-12%,-3%
CC1CCCC(NC(=O)C(c2ccccc2)N(C)C)C1 (stereo not given),3%,8%
COc1ccc(Cl)cc1C(=O)N1CC(C)CC(C)C1 (stereo not given),33%[activator],5%
COc1ccccc1N1CCN(CC(=O)Nc2ccc(C)cc2Cl)CC1,8%,20%
CCCC(=O)N(CC)Cc1cc(=O)[nH]c2ccccc12,-11%,2%
CCCc1cc(=O)n2[nH]c(NC(=O)C(C)(C)C)nc2n1,1%,4%

The list goes on:
Compound,StopGo RLuc,StopGo FLuc
COc1ccc(-c2nc(C(=O)N3CCCCCC3)nn2-c2cccc(Cl)c2)cc1,126%[activator],6%
Cn1c(=O)c2c(nc(N3CCCC3)n2CCCc2ccccc2)n(C)c1=O,-5%,2%
COc1ccccc1NC(=O)Cn1c(=O)n(Cc2ccco2)c(=O)c2cccnc21,13%,-1%
O=C(Cc1ccccc1)Nc1c(C(=O)c2ccccc2)oc2ccccc12,133%[activator],14%
Cn1nc(C(=O)NCc2ccccc2CN2CCCC2)c2ccccc2c1=O,-8%,-12%
CC(C)(C)c1ccc(COC(=O)c2ccc(S(C)(=O)=O)cc2)cc1,4%,11%
CCOc1ccc(-n2c(SCC(=O)NCc3ccccc3)nc3n[nH]c(C)c3c2=N)cc1,-1%,-23%
Cc1ccc(S(=O)(=O)NC(C)CN2CCOCC2)c(Br)c1 (stereo not given),38%[activator],-17%
O=C(Nc1ccc2oc(-c3ccccc3F)nc2c1)c1ccc([N+](=O)[O-])o1,-7%,49%[activator]
CC1CCc2c(sc3nnn(CC(=O)OC4CCCC4)c(=O)c23)C1 (stereo not given),0%,89%[activator]
CN1CCC2(CC1)Oc1ccccc1C1CC(c3ccc4c(c3)OCCO4)=NN12 (stereo not given),140%[activator],90%[activator]
CCOCCOC(C)=O,-7%[114 µM],-8%[22.9 µM]
CC1(C)N=C(SCC(=O)Nc2ccc(Br)cc2)C(c2ccc(Br)cc2)=N1,-23%,-22%
O=C(NCc1ccc(OC(F)F)cc1)C1CCN(S(=O)(=O)c2cccnc2)CC1,5%,-3%
CC(C)C(=O)Nc1ccc2oc(-c3ccncc3)nc2c1,-3%,182%[activator]
CCC(Oc1ccc(F)cc1)C(=O)Nc1nc(-c2ccc(F)cc2)ns1 (stereo not given),u,25µM*
Cc1ccc(OCCCOc2ccccc2/C=N/NC(=O)c2cccc(Cl)c2)cc1C,-3%,43%[activator]
Fc1ccc(NCc2ccccc2-c2nnc(-c3ccccc3Cl)o2)cc1,124%[activator],15%
CCCCn1c(N)c(N(CC(C)C)C(=O)c2cc(-c3ccccc3)nc3ccccc23)c(=O)[nH]c1=O,-3%,18%
CCOc1ccccc1N(CC)C(=O)c1ccc2c(=O)n3c(nc2c1)CCCCC3,0%,0%

(cont.)
Compound,StopGo RLuc,StopGo FLuc
O=C(c1cc(Cl)ccc1Cl)N1CCN(C(=O)c2cc(Cl)ccc2Cl)CC1,4%,6%
Cc1ccccc1C(=O)N1CCCC(c2nc3ccccc3[nH]2)C1 (stereo not given),5%,42%[activator]
CCc1ccc(C(=O)/C=C/c2cccc([N+](=O)[O-])c2)cc1,2%,0%
CCCCN(CCCNC(=O)c1cc(Nc2cccc(SC)c2)nc2ccccc12)Cc1ccccc1,6%,-4%
CC1CCN(CCCNC(=O)c2cc(Sc3ccc(F)cc3)nc3ccccc23)CC1,3%,-14%
COC(=O)CCC(=O)Oc1cc(C)c(C2(c3cc(C(C)C)c(OC(=O)CCC(=O)OC)cc3C)OC(=O)c3ccccc32)cc1C(C)C,237%[activator],-9%
COc1cc(OC)c(Nc2nc3ccc(C)cc3n3nnnc23)cc1Cl,38%[activator],-10%
O=C(CCc1nc2sc3c(c2c(=O)[nH]1)CCC3)N1CCCCC1,-9%,8%
CCOC(=O)c1cccc(OCC(O)Cn2c(=O)c3ccccc3n3nc(C)cc23)c1 (stereo not given),11%,1%
Cc1ccc(O)c(NC(=O)c2cc(-c3ccc(F)cc3)no2)c1,-9%,6%
Cc1cccc(-c2nc(CN3CCCC(C(=O)N4CCN(c5cc(Cl)ccc5C)CC4)C3)c(C)o2)c1 (stereo not given),-16%,-13%

Bioassay records (PubChem BioAssay)

The list is partial, so the mix of outcomes need not match the whole.
